NPYLR7 agonist: activates Aedes aegypti NPYLR7 receptor; HEK293T NPYLR7/Galpha15, GCaMP6s calcium fluorescence; activation, % at 10 µM; 270,000 compounds, 0.15% hits; AID 1259423; in the data active = activation above about 40%;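 note: 0% = vehicle and 100% = reference agonist at the receptor; some compounds past the cut are filed as inactive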
NPYLR7 agonist max-min: further read-out of NPYLR7 agonist, marked with its call; activation, %; measured here: Max-Min RFU normalised activation; some inactives read as strong as hits;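 span of the calcium signal over five minutes; 0% = vehicle and 100% = native peptide agonist; compound fluorescence can raise it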
Active calls of the source: *. Some of the compounds tested, so the mix of outcomes need not match the whole.

SMILES | NPYLR7 agonist | NPYLR7 agonist max-min
CCc1nnc(-c2cc3ccccc3n2CC(=O)N2CCCCC2)o1 | -6 | -6
c1ccc(Oc2cccc(C3c4cccn4CCCN3Cc3ccccn3)c2)cc1 (stereo not drawn) | 12 | 11
C=CCCC(O)CN(Cc1c(-c2ccccc2)nn(C)c1Oc1cccc(C)c1)C1CC1 (stereo not drawn) | -8 | -3
COc1cn(CC(=O)NCc2ccccc2Cl)c(CSc2nccn2C)cc1=O | -4 | -11
COc1cc(NC(=O)CCl)c(OC)cc1Cl | 9 | 11
N#Cc1ccc(CSC2=NN3CCS(=O)(=O)N=C3S2)cc1 | 5 | 4
Cc1cc(C)n2c(SCCOc3ccc(F)cc3)nnc2n1 | 1 | 0
O=C(C1CCCO1)N(CCc1ccccc1)Cc1ccc2c(c1)OCCO2 (stereo not drawn) | 20 | 9
Cc1cccc2c(C3CCN(C(=O)c4ccc(F)c(C(F)(F)F)c4)CC3)c[nH]c12 | 17 | 5
CC(=O)c1c(F)cccc1NC(C)CCN(C)C (stereo not drawn) | -1 | -7
O=C(N1CCN(Cc2cc(=O)c(OCc3ccccc3Cl)co2)CC1)C(F)(F)C(F)(F)C(F)(F)F | 4 | 1
CCOc1ccc(-n2c(C(C)N(CCc3ccc(OC)c(OC)c3)C(=O)c3cccc(OC)c3)nc3ccccc3c2=O)cc1 (stereo not drawn) | -6 | -9
CC(C)(C)c1ccc(OCCOc2ccc(Cl)cc2/C=N\n2cnnc2)cc1 | -2 | -3
CCCCC1C=CCN1C(=O)C1=NNC(=O)CC1 (stereo not drawn) | -1 | -1
CCOC(=O)c1csc(NC(=O)Nc2ccccc2)n1 | -1 | -4
O=C(Nc1nc2ncccn2n1)C1SCCc2sccc21 (stereo not drawn) | 1 | 7
CCn1nccc1NC(=O)C1(C)CCN1C(=O)C/C=C/c1ccccc1 (stereo not drawn) | -4 | 2
CNC(=O)NC(=O)CSc1nc2ccccc2c(=O)n1CCCN1CCOCC1 | 0 | 9
O=C(c1ccccc1-c1ncc[nH]1)N1C[C@H]2CC=CC[C@H]2C1 | 7 | 4
COc1cc(CNC(=O)c2cccc(-n3ccc4ccccc43)c2)cc(OC)c1OC | -2 | -2
CC1CCC(NC(=O)c2ccc(-n3nc(-c4ccc(Cl)cc4)cc3N)cc2)CC1 (stereo not drawn) | 2 | -1
CCC(C)(NC(=O)Nc1cccn(C)c1=O)c1nc(C)cs1 (stereo not drawn) | -2 | -2
O=C(C1CCCC1)N1CCCC(OCc2ccc(Br)cc2)C1 (stereo not drawn) | -9 | -6
CNC(=O)C(C)N(C)Cc1nc(-c2ccccc2)cs1 (stereo not drawn) | -2 | -2
COC(=O)c1sc(NC(=O)c2ccccc2Br)nc1C | 3 | 8
O=S(=O)(c1ccc(F)c(F)c1)N1CCCCC1 | 0 | 0
CCn1ccnc1-c1c(-c2ccccc2)ncn1CCN1CCOC1=O | -7 | -14
Cc1ccccc1Oc1ncccc1CNc1cnc2ccccc2n1 | 18 | 10
COc1ccc(-n2ccnc2-c2cccc(C(C)N(C)C)c2)cn1 (stereo not drawn) | 2 | -2
CCOC(C)C(=O)Nc1ccc2nc(CN3CCOCC3)[nH]c2c1 (stereo not drawn) | 6 | 3
COCCOc1ncccc1C(=O)NCC(C)N1CCN(C)CC1 (stereo not drawn) | 8 | 4
Cc1ccc2ncc(CCNC(=O)[C@@H]3CS[C@H]4CC[C@H](NC(=O)c5ccco5)C(=O)N43)n2c1 | 1 | -1
CCN(CC)c1ccc(CN(CCOC)C(=O)c2cccc(F)c2)c(OS(=O)(=O)CC)c1 | -2 | 15
CCOc1ccccc1N1CCN(C(=O)c2cc(-c3ccco3)nn2-c2cccc(Cl)c2)CC1 | -1 | 9
NC(=O)c1ccc(N2CCN(c3ccnc4ccsc34)CC2)cc1 | -7 | -13
CN1CC2(CCN(C(=O)CC3=C(c4ccccc4)CCC3=O)C2)OC1=O (stereo not drawn) | 9 | 5
O=C(COc1ccc2c(c1)OCO2)N1CCCC(c2ccn[nH]2)C1 (stereo not drawn) | -4 | -13
CN(C)C(=O)CN1C(=O)C2C3C=CC(C3)C2C1=O (stereo not drawn) | 13 | 13
CCOc1ccc(-c2ccnc(N3CCN(C(=O)c4cc(C(F)(F)F)ccc4F)CC3)n2)cc1 | 3 | 2
Cc1ccc2nc(/C=C/c3ccc([N+](=O)[O-])cc3)oc(=O)c2c1 | 2 | 11

Some of these compounds in order of formula weight, largest number first.
SMILES | NPYLR7 agonist | NPYLR7 agonist max-min
CCOc1ccccc1N1CCN(C(=O)c2cc(-c3ccco3)nn2-c2cccc(Cl)c2)CC1 | -1 | 9
Cc1ccc2ncc(CCNC(=O)[C@@H]3CS[C@H]4CC[C@H](NC(=O)c5ccco5)C(=O)N43)n2c1 | 1 | -1
O=C(C1CCCC1)N1CCCC(OCc2ccc(Br)cc2)C1 (stereo not drawn) | -9 | -6
CN1CC2(CCN(C(=O)CC3=C(c4ccccc4)CCC3=O)C2)OC1=O (stereo not drawn) | 9 | 5
CCn1ccnc1-c1c(-c2ccccc2)ncn1CCN1CCOC1=O | -7 | -14
Cc1ccccc1Oc1ncccc1CNc1cnc2ccccc2n1 | 18 | 10
COc1ccc(-n2ccnc2-c2cccc(C(C)N(C)C)c2)cn1 (stereo not drawn) | 2 | -2

Compounds shown so far that have two or more sulfur atoms:
SMILES | NPYLR7 agonist | NPYLR7 agonist max-min
N#Cc1ccc(CSC2=NN3CCS(=O)(=O)N=C3S2)cc1 | 5 | 4
O=C(Nc1nc2ncccn2n1)C1SCCc2sccc21 (stereo not drawn) | 1 | 7

(more compounds)
SMILES | NPYLR7 agonist | NPYLR7 agonist max-min
O=C1CN(c2ccc(CNC(=O)c3ccc[nH]c3=O)cc2)CCN1 | 16 | 11
O=c1oc2c(Cl)cc(Cl)cc2cc1-c1csc(Nc2ccccc2F)n1 | -2 | -8
COc1cc(NC2CCOC2=O)ccc1NC(=O)c1cccnc1 (stereo not drawn) | 4 | -3
CCC(C)C(NC(=O)c1cccc(F)c1)C(=O)Nc1nnc(-c2ccc(Cl)cc2)s1 (stereo not drawn) | -4 | 5
Cc1cccc(NC(=S)Nc2ccc(C)c(S(=O)(=O)N(C)C)c2)c1 | 1 | -2
COc1cccc(CN(CCC(C)C)CC(O)COCc2ccccc2)c1 (stereo not drawn) | 18 | 17
O=C(Nc1nc(-c2ccc(F)cc2)cs1)c1ccc(S(=O)(=O)N2CCCC2)cc1 | 1 | 1
CCc1cc(CN(C)C(=O)Cc2c(C)[nH]c3ccccc23)on1 | -1 | -1
O=C(Nc1ccc2nc([C@@H]3O[C@H](CO)[C@@H](O)[C@H](O)[C@H]3O)[nH]c2c1)NC(c1ccccc1)c1ccccc1 | -2 | 16
Cc1ccoc1C(=O)N1CCN(CCn2cncn2)CC1 | 2 | 1
O=C(c1ccc2oc(CCCc3ccccc3)nc2c1)N1CCN(c2ncccn2)CC1 | 6 | 2
C(#Cc1ccccc1)CN(Cc1nc(-c2ccco2)no1)C1CC1 | -1 | -9
CN1CCCC(NC(=O)c2ccc3noc(-c4ccccc4)c3c2)C1 (stereo not drawn) | 6 | -8
Cc1cc(=O)[nH]c(-n2nc(-c3cccs3)cc2NC(=O)/C=C\c2ccccc2)n1 | 2 | -1
Cc1ccc(OCC2c3ccsc3CCN2C(=O)CN(CC2CCCO2)C(=O)c2cccc(Cl)c2)c(C)c1 (stereo not drawn) | -2 | 1
CC(C)C1NC(=O)N(CC(=O)N(C(C)C)C2CCCCC2)C1=O (stereo not drawn) | -2 | -2
C=CCN1C[C@H]2COc3ccc(C)cc3[C@H]2N(C(=O)c2ccccc2OC)CCC1=O | -1 | 3
COc1cc(-c2ccc(SCC(=O)c3ccc(C)cc3)nn2)cc(OC)c1OC | 0 | -1
O=C(CN1C(=O)COc2ccccc21)Nc1ncc(Cc2cc(F)cc(F)c2)s1 | 5 | 7
COc1ccc(-c2nc3c(C)cccn3c2NC(C)(C)CC(C)(C)C)cc1OC | -8 | 3
CC(=O)CSc1n[nH]c(CN2c3ccccc3Sc3ccccc32)n1 | -3 | -3
Cc1cc(C(=O)CN2CCC(C(=O)Nc3ccc4c(c3)OCO4)CC2)c(C)n1CC1CCCO1 (stereo not drawn) | -5 | -7
CC(C)CC(=O)N1CCN(c2nccn2C)CC1 | 4 | 11
Cc1nc2ncc3c(=O)n(-c4ccc5c(c4)OCO5)ccc3n2n1 | 2 | 7
CN(C)C(=O)c1ccc(-c2cc3c(Nc4ccccc4)nccc3n2C)cc1 | -5 | -11
CC(C)COc1nc(-c2cccc(C(F)(F)F)c2)n(-c2ccc(NC(=O)COCc3ccccc3)cc2)n1 | 9 | 8
Cc1cnn(-c2cc(N3CCC(n4cc(C5CC5)nn4)CC3)ncn2)c1 | 5 | 18
Cc1nc(C)c(C(=O)NCCn2ncc3c(N4CCOCC4)ncnc32)s1 | 3 | 0
COc1ccccc1C(O)CNC(=O)Nc1ccc(C(F)(F)F)cc1 (stereo not drawn) | 13 | 5
O=C1C2C3C=CC(C3)C2C(=O)N1C1CCS(=O)(=O)C1 (stereo not drawn) | 21 | 15
COCCNC(=O)CSc1nnc(N2CCN(C(=O)Cn3cnc4ccccc43)CC2)s1 | -6 | -10
COc1ccc(C(=O)C2CCCN(C(=O)CCC3=NNC(=O)CC3)C2)c(C)c1 (stereo not drawn) | 15 | 8
COc1ccc(CC(=O)Nc2nnc(-c3ccc(S(=O)(=O)N(C)C)cc3)o2)cc1C | 1 | -1
CCOC(=O)C1CCN(C(=O)c2c(C)c3c(n2Cc2cccc(F)c2)CCCC3)CC1 | -3 | -9
CN(c1ccccc1)N1CC(C(=O)N2CCCC2C2CCCCC2)CC1=O (stereo not drawn) | -8 | -10
COc1ccc(Br)cc1S(=O)(=O)N1CCN(C(=O)c2cc(-c3ccccc3)nc3ccccc23)CC1 | -8 | -19
CCOc1ccc(C2c3cccn3CCCN2Cc2ccccc2C)cc1 (stereo not drawn) | -1 | 2
COC(=O)C1CCCCN1Cc1ccc2c(c1)CN(C(=O)CSc1nnc(C)s1)CCO2 (stereo not drawn) | 1 | -8
Cc1cc(N2CCC(CCC(=O)NC3CCN(Cc4ccccc4)C3)CC2)nc(N(C)C)n1 (stereo not drawn) | 16 | 3
S=c1[nH]nc(-c2snnc2-c2ccccc2)n1-c1cc(Cl)cc(Cl)c1 | -12 | -20
CCc1ccc(-c2c(-c3ccccc3)ncn2CCc2nn[nH]n2)nc1 | -4 | -14
Cc1cc(OCC2CN(C(=O)COc3ccccc3C)CCO2)ccc1Cl (stereo not drawn) | -2 | -5
COc1cn(CC(=O)Nc2ccccc2C)c(CSc2ncccn2)cc1=O | -5 | -12
CC(C)c1ccc2[nH]c(O)c(N=NC(=O)OC(C)(C)C)c2c1 | -8 | -8
CCCNC(=O)C1(C)CCN(Cc2noc(-c3ccccc3OC)n2)C1 (stereo not drawn) | 1 | 3
COc1ccc(NC2CCCN(C(=O)c3cn(CCCN)nn3)C2)cc1 (stereo not drawn) | 9 | 3
COc1ccc(NC(=O)N2CCc3ccccc3C2c2ccc(Cl)cc2)c(C)c1 (stereo not drawn) | 18 | 10
CC(C)CCn1c(N2CCCC(C)C2)nc2c1c(=O)[nH]c(=O)n2C (stereo not drawn) | 0 | -1
Clc1ccccc1C1SCC2=Nc3ccccc3CN21 (stereo not drawn) | 2 | 1
O=c1c2c(nc(SCc3ccc(Cl)cc3)n1-c1ccccc1)CCS2 | -1 | -3
CC(C#N)Sc1nnc(-c2ccc(Cl)cc2Cl)n1C(C)C (stereo not drawn) | 0 | -1
O=C1CSC(c2cccc(NS(=O)(=O)c3ccc(F)cc3)c2)N1c1ccc(F)cc1 (stereo not drawn) | 0 | 6
CC(=O)c1sc(=Nc2cccc(Cl)c2)n(N2CCOCC2)c1C | -5 | -11
Cn1cc(NC(=O)Nc2cccc3c2CCN(S(C)(=O)=O)C3)cn1 | 0 | -1
CC(C)C(=O)Nc1ccc(CNC(=O)CCN2C(=O)NC3(CCCC3)C2=O)cc1 | 10 | 15
CCS(=O)(=O)c1ccc(-c2ccc(NS(=O)(=O)c3cc(C)cc(C)c3)cc2)nn1 | 6 | 0
C#CCNC(=O)CN(CC)C1C2CC3CC(C2)CC1C3 (stereo not drawn) | 10 | 4
CCOC(=O)C1=C(C)NC2=C(C(=O)CCC2)C1c1ccc(OCc2ccccc2)c(OC)c1 (stereo not drawn) | 4 | 4
CN(C(=S)NC1CCCCC1)c1ccc(O)cc1 | -2 | -2
COc1ccc(C2CN(C(=O)NC(C)C)CC2C(=O)NCc2cccnc2)c(OC)c1 (stereo not drawn) | 6 | 5

Additional results follow:
SMILES | NPYLR7 agonist | NPYLR7 agonist max-min
Cc1ccc2nc(C)c(C(=O)N3CC(n4cccn4)C3)cc2c1 | 1 | 10
O=C(c1ccccc1F)N(CCN1CCCCC1)Cc1csc(COc2cc(Cl)ccc2Cl)n1 | 9 | 6
CC(c1ccc(F)c(F)c1)N(C)C(=O)Cn1[nH]c(=O)ccc1=O (stereo not drawn) | 7 | 7
CC12CCCC(=O)C1C(c1ccccc1)NC2c1ccccc1 (stereo not drawn) | 4 | 4
CNCc1n[nH]c2c1CCCCC2 | 2 | 39
COC(=O)c1ccc(NC(=O)Cn2c(-c3nnc(C(C)C)o3)cc3ccccc32)cc1 | -1 | 0
Cc1[nH]ccc1C(=O)NC1(CNC(=O)OC(C)(C)C)CCCC1 | 6 | 4
Cc1nc(C)c(C(=O)N2CCN(c3ccc(-c4cccs4)nn3)CC2)s1 | -2 | -3
